Source: PubChem BioAssay
Mtb betalactam: beta-lactam sensitization of Mtb H37Rv, H37Rv; inhibition, % at 25 µM; M. tuberculosis H37Rv growth with meropenem, percent inhibition; hits of this screen are not shown here; AID 434955, 2010; hit rate 0.27% among 330,000;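 active means about 74% or more and at least 40 points above the plate without the antibiotic, then above 30% in a dose series; inconclusive means first-round hits that could not be retested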;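 further: growth measured after seven days incubation then overnight dye step; 0% = bacteria only wells and 100% = bacteria with antibiotic; twin plates without the antibiotic show which effects depend on it; some results filed as inactive read as strong as hits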
YopH PTP inh: YopH tyrosine phosphatase inhibitors, primary screen, biochemical, fluorescence Ex485/Em525; YopH tyrosine phosphatase [Yersinia enterocolitica]; inhibition, %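 (about 10 µM by stock and volumes)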; hit rate 0.16% among 140,000;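 active means inhibition of 50% or more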;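 further: controls were vehicle for no effect and minimum signal wells for full effect; inactives centre near -20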
RecA splice inh: Mtb RecA intein splicing inhibitors, primary screen, biochemical, fluorescence, HTS. Protein RecA (Mycobacterium tuberculosis (strain ATCC 25618 / H37Rv)), P9WHJ3. cell-free RecA intein splicing. inhibition, %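 (about 9 µM by stock and volumes)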. hit rate 0.75% among 290,000. AID 2221, 2009; in the data active means inhibition above about 30%; inconclusive means no clear call, values can overlap the other calls;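 further: 0% = vehicle wells and 100% = reference inhibitor control wells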
Target sequence (P9WHJ3 whole entry, looked up, canonical isoform): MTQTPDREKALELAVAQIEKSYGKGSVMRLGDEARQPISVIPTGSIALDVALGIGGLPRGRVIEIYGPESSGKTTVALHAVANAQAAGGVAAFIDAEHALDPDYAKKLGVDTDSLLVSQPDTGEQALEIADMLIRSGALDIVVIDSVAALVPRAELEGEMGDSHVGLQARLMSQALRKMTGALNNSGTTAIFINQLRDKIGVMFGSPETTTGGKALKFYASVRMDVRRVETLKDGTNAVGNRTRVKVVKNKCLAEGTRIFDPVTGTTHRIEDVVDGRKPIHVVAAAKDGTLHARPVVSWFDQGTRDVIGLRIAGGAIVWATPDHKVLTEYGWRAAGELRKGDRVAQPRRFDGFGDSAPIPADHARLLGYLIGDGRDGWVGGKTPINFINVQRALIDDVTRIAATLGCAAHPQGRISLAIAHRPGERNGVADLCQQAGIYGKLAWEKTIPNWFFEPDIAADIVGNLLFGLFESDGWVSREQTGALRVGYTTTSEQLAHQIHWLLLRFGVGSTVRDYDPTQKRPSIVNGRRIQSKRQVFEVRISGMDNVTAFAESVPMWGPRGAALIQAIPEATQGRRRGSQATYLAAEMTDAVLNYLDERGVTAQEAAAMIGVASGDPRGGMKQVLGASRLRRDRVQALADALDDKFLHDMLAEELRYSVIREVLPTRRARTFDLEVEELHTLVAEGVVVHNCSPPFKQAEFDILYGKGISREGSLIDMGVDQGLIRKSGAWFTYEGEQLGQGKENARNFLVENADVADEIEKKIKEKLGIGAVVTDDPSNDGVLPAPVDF
Arbovirus anti: antivirals against arbovirus infection, primary screen, cell-based, full library, 10K replicate subset; hit rate 0.37% among 200,000; AID 1251, 2008; arbovirus infection cell-based antiviral screen; inhibition, % at 10 µM;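 active means inhibition from about 30%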;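 further: bluetongue infection of BSR cells; cell survival read as ATP light after 72 h; 0% = infected wells without compound and 100% = uninfected wells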
Mtb growth: M. tuberculosis H37Rv growth inhibitors, H37Rv strain (AID 1626). M. tuberculosis H37Rv growth inhibition; higher % means a stronger effect. one-dose inhibition, % at 10 µM; IC50 in µM for titrated hits. hit rate 0.95% among 220,000;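 active means confirmed in a dose series; inconclusive means inhibition above 80% but not taken into the dose series; inactive means below 80% or under 30% at every dose of the series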;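 further: bacteria incubated seven days before Alamar blue readout; 0% = bacteria only wells and 100% = bacteria with antibiotic wells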
Arbovirus anti repeat: also measured in Arbovirus anti; calls as there; inhibition, %; measured here: 10K subset replicate screen; many hits read low in the repeat;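 first of two repeat runs on a subset; 0% = infected and 100% = uninfected wells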
* = called active by the depositor; ? = inconclusive; · = not tested or not shown. A portion of the library; rates above refer to the full screens.

SMILES	Mtb betalactam	YopH PTP inh	RecA splice inh	Arbovirus anti	Mtb growth	others
COc1cc2c(cc1OC)C1=C(C#N)CN(C3CCCCC3)CN1CC2	1	-16	-4.2	7	-4%	Arbovirus anti repeat=0
CC1CCC(n2c(=S)[nH]c3ccccc3c2=O)CC1 (stereo unspecified)	66	-28	1.4	12	18%	Arbovirus anti repeat=9
CCC(=O)NC1(C(F)(F)F)C(=O)NC(C)=C1C#N (stereo unspecified)	-17	-22	0.4	0	-3%
Cc1ccc(NC(=O)CS(=O)CC(=O)N(C2CCCC2)C(C)C(=O)NC2CCCCC2)cc1 (stereo unspecified)	-3	-22	3.9	5	-3%
COc1ccc(C(=O)N2CCN(Cc3nc(CC4CC4)no3)CC2)cc1	-4	·	3.7	5	1%
CCOC(=O)N1C2=NC(C(=O)OC)=C(C(=O)OC)[C@@H]3N(Cc4ccccc4)c4ccccc4[C@]23C[C@H]1C(=O)OC	-1	·	-1.3	·	-6%
O=C1CCC([N+](=O)[O-])C(C2CC=CCC2)N1 (stereo unspecified)	0	·	1.0	·	·
Cc1ccc(CO/N=C/C2=C(Cl)c3ccccc3CC2)cc1	36	0	3.7	13	7%
COc1ccc(C)cc1S(=O)(=O)N(CC(=O)Nc1ccc2c(c1)OCCO2)Cc1ccccc1	-13	10	6.0	-5	-4%
Cc1ccc(C(=O)N2CCCCCC2)cc1S(=O)(=O)Nc1ccccc1	0	·	0.3	·	·
O=C(CN1CCC(NC(=O)C2CC2)CC1)Nc1cccc(F)c1	-10	·	-0.9	·	·
Cc1ccc(CNC(=O)C2CCC(CNc3nc(=S)[nH]c4ccccc34)CC2)cc1 (stereo unspecified)	1	·	-2.6	-8	0%
CCOC(=O)Cn1c(=NC(=O)C(C)C)sc2c(C)cc(C)cc21	36	·	0.1	·	-1%
CC(C)Cn1nc(NS(=O)(=O)c2cccc3nonc23)c2cc3ccccc3nc21	1	·	2.3	·	·
Nc1c(Br)c(=O)[nH]c(=O)n1-c1ccc(F)cc1	1	·	0.3	·	·
COc1ccc(CNC(=O)COc2cc3c(c4oc(=O)cc(C)c24)CCC(C)(C)O3)cc1	2	·	-2.0	·	·
O=C(NCCCCc1ccccc1)c1ccccc1Br	5	·	1.3	·	·
O=C1NC(=S)S/C1=C/c1ccc(N2CCOCC2)o1	43	-3	1.2	22	1%
Cc1ccc(Cn2cc(-c3ccccc3)nn2)cc1	10	·	2.1	·	·
Cc1nn(C)c(C)c1CN(C)C(=O)CCCC(=O)O	-10	-19	-1.8	-1	-4%

Part of the list above in order of formula weight, descending.
SMILES	Mtb betalactam	YopH PTP inh	RecA splice inh	Arbovirus anti	Mtb growth	others
COc1ccc(CNC(=O)COc2cc3c(c4oc(=O)cc(C)c24)CCC(C)(C)O3)cc1	2	·	-2.0	·	·
Cc1ccc(CNC(=O)C2CCC(CNc3nc(=S)[nH]c4ccccc34)CC2)cc1 (stereo unspecified)	1	·	-2.6	-8	0%
CCOC(=O)Cn1c(=NC(=O)C(C)C)sc2c(C)cc(C)cc21	36	·	0.1	·	-1%
O=C(NCCCCc1ccccc1)c1ccccc1Br	5	·	1.3	·	·
O=C(CN1CCC(NC(=O)C2CC2)CC1)Nc1cccc(F)c1	-10	·	-0.9	·	·
Cc1nn(C)c(C)c1CN(C)C(=O)CCCC(=O)O	-10	-19	-1.8	-1	-4%
Cc1ccc(Cn2cc(-c3ccccc3)nn2)cc1	10	·	2.1	·	·

Further results follow.
SMILES	Mtb betalactam	YopH PTP inh	RecA splice inh	Arbovirus anti	Mtb growth	others
CC(C)c1ccc(C(=O)Nc2nnc(S(=O)(=O)N3CCCCC3)s2)cc1	-3	·	0.4	·	·
CCc1ccc(N(CC(=O)NCc2ccco2)C(=O)CCC(=O)Nc2nccs2)cc1	4	·	-1.2	·	·
O=C(CSc1nnc2ccc(-c3cccnc3)nn12)Nc1ccccc1	0	·	-9.9	·	·
CC1CCC(NS(=O)(=O)c2ccc(Cl)nc2)CC1 (stereo unspecified)	-11	·	0.3	·	·
CSc1cc(C)nc(NC(C)=O)n1	-8	-4	-0.3	3	-7%
CCCN1CCN(CCCNC(=O)CCn2nc(-c3ccccc3)ccc2=O)CC1	-3	·	-0.4	1	1%
O=C1CN(C(=O)COC(=O)c2cnc(Cl)c(Cl)c2)c2ccccc2N1	3	·	-1.6	20	-5%
CCOc1ccc(-c2noc(-c3cccnc3)n2)cc1OCC	98	·	0.4	·	8%
CC(C)[C@H](NS(=O)(=O)c1ccccc1)C(=O)OCn1nnc2ccccc2c1=O	11	-18	1.5	5	-14%
Cc1nc(N2CCN(C(=O)c3ccco3)CC2)c2oc3ccccc3c2n1	8	·	-2.6	·	-13%
CC(=O)c1sc(-c2ccc(F)cc2)cc1NS(=O)(=O)c1ccccc1	-1	·	0.6	·	-10%
CC(Oc1ccc(F)cc1)C(=O)Oc1ccc(N(C)S(=O)(=O)c2ccccc2)cc1 (stereo unspecified)	-1	·	39*	·	·
O=C(COC(=O)CCS(=O)(=O)c1ccccc1)Nc1cc(S(=O)(=O)N2CCCCC2)ccc1Cl	-5	·	-4.3	·	·
O=C(CSc1nncc2ccccc12)N1CCOCC1	6	-28	2.9	9	-1%
Cc1ccn2cc(CNC(=O)c3cccs3)nc2c1	0	-14	-0.9	8	-2%
Cc1cc(=O)oc2cc(OCC(=O)OCC(=O)NC(=O)NC(C)C)ccc12	-5	·	-2.3	23	0%
COc1ccc(-c2[nH]nc3c2C(c2ccccc2OC(=O)N2CCOCC2)C(C#N)=C(N)O3)cc1 (stereo unspecified)	-4	-26	71*	4	-7%
CCOc1ccc(N(CC(=O)Nc2ccc(C)cc2)S(=O)(=O)c2c(C)noc2C)cc1	-9	1	-1.1	-6	-1%	Arbovirus anti repeat=1
CN(C)c1ccc(/C=C(/NC(=O)c2ccccc2)C(=O)N/N=C/c2ccc([N+](=O)[O-])c(O)c2)cc1	69	37	0.4	-1	1%
Cc1cc(C)cc(NC(=O)CSc2nnc(Cc3cccn3C)n2-c2ccc(F)cc2)c1	1	-8	3.6	-2	-11%	Arbovirus anti repeat=-10
S=C1NCN(Cc2ccccc2)CN1	-8	·	-1.0	·	-2%
Cc1c(N(C)S(=O)(=O)c2cccc(C(=O)NCC3CCCO3)c2)c(=O)n(-c2ccccc2)n1C (stereo unspecified)	0	·	-0.1	·	·
CC1=CC(C)(C)N(C(=O)Nc2ccccc2)c2ccccc21	-3	·	1.9	6	·
CCc1ccc(-n2cc(-c3ccc(F)cc3)[n+]3c2SCCC3)cc1	-2	·	-1.5	3	-1%
COC(=O)C1=C(c2cc3ccccc3s2)C[C@@H]2CC[C@H]1N2C(=O)N1CCC(C)CC1	-2	·	28	·	23%
COC(=O)c1onc(-c2ccccc2)c1C(=O)OC	-11	-26	-1.6	-1	-3%
Cc1sc2ncnc(SCC(=O)N3CCCCC3)c2c1C	-2	·	1.4	·	·
NSc1nc(N)c2nc(-c3ccccc3)c(-c3ccccc3)nc2n1	4	·	-14	-4	-2%
O=C(NCCCN1CCOCC1)c1cc(C(=O)C2CCCCC2)c[nH]1	2	·	-0.2	6	0%
Cc1ccc(NC(=O)/C(=C/c2cccc([N+](=O)[O-])c2)NC(=O)C2CCCCC2)cc1	2	-20	-0.3	3	3%
COc1ccc(/C=N/NC(=O)c2ccccc2OC)cc1COc1ccc(C)cc1	-4	·	-0.1	·	·
COC(=O)c1ccc(C(=O)OC)c(NC(=O)Nc2ccc3c(c2)OCO3)c1	-7	32	-0.3	0	-5%
CN1CCN(C(=O)C2CC(c3c(F)cccc3Cl)=NO2)CC1 (stereo unspecified)	-8	3	1.8	-1	-7%
Cc1cccc(OCCn2cc(/C=N/NC(=O)c3ccncc3)c3ccccc32)c1	99	-13	1.0	13	?
Cc1cc(OC(=O)c2ccccc2Br)c([N+](=O)[O-])c(=O)[nH]1	3	·	-0.5	·	·
O=[N+]([O-])c1cc(S(=O)(=O)Nc2ccccc2)ccc1N1CCN(c2ccc(O)cc2)CC1	50	-22	0.1	-19	3%
COc1ccc(C)cc1S(=O)(=O)Nc1ccccc1C	3	-7	-1.8	-1	-5%
C/C(=N\NC(=O)c1ccc(Cl)cc1)c1cccc(NC(=O)c2cccnc2)c1	0	-27	-4.6	2	-4%
Cc1nn(C(C)C(=O)Nc2ccc(Cl)cn2)c(C)c1[N+](=O)[O-] (stereo unspecified)	9	-24	1.1	-5	2%
O=C(COC(=O)c1ccc2c(c1)C(=O)N(CCc1ccccc1)C2=O)Nc1ccc(OC(F)F)cc1	0	-17	-0.6	5	0%
CCOC(=O)CN(C(=O)CSc1nnc(CNc2ccc(F)cc2)n1C)c1ccccc1	-5	-12	0.6	-1	-13%
CCOc1cccc(CNCCNC(=O)c2nonc2N)c1	-4	-9	-1.3	3	-4%
O=C(NCCc1nc2ccccc2[nH]1)/C(=C/c1ccco1)NC(=O)c1ccc(Br)cc1	2	-25	5.4	-16	-17%
O=C(c1ccc(N2CCOCC2)c([N+](=O)[O-])c1)N1CCN(S(=O)(=O)c2cccs2)CC1	-4	·	3.5	1	5%
O=C1c2ccc(Oc3ccc4c(c3)C(=O)N(CCCCO)C4=O)cc2C(=O)N1CCCCO	2	6	-1.7	12	-9%
COc1ccc(C2(c3ccc(OC)cc3)NC(=O)N(CC(=O)NC(C)C)C2=O)cc1	-1	·	-0.3	·	·
CSc1ccccc1C(=O)N1CCC(CCC(=O)NCc2ccc(F)cc2)CC1	11	·	-4.3	·	·
O=C(O)CSCC(=O)NCc1ccccc1	7	-40	1.5	11	-2%
CCOc1ccc(-n2cnnn2)cc1S(=O)(=O)N1CCCCC1	-5	-44	0.0	4	-2%
Nc1ccccc1SCc1ccccc1	2	·	·	6	-8%
Following part:
SMILES	Mtb betalactam	YopH PTP inh	RecA splice inh	Arbovirus anti	Mtb growth	others
CCCNC(=O)c1ccc(Cl)c(Cl)c1	-4	4	1.3	0	-7%
Cc1ccc(NC(=O)CCNC(=O)c2ccccc2Cl)cc1S(=O)(=O)N(C)C	1	-29	-0.8	9	5%
COc1cc2c(C(=O)N3CCN(C)CC3)c(CSc3ccccc3)n(C)c2cc1Br	38	·	6.5	-15	9%
COc1ccc(Cl)cc1C(=O)CSc1nc(N)cc(N)n1	-10	-34	0.2	4	-4%
CC(C)(C)c1ccc(-c2nc(C#N)c(NCc3cccnc3)o2)cc1	97	-15	6.7	-23	0%
O=C(C(=O)N1CCN(c2ccc([N+](=O)[O-])cc2)CC1)c1cn(CC(=O)N2CCOCC2)c2ccccc12	-2	·	-2.2	·	·
Cc1nnc(-c2ccccc2)[nH]c1=O	-4	·	1.0	2	0%
CCOc1cccc(C(=O)Nc2ccncc2)c1	4	·	0.3	11	1%
COc1ccc(C(C)=O)cc1COC(=O)C(CO)NS(=O)(=O)c1ccc(Br)cc1 (stereo unspecified)	-20	·	5.3	8	8%
CC(=O)N1CCC2(CC1)CC(=O)c1cc(OCC(=O)NCc3ccc(C)cc3)ccc1O2	-12	13	-6.4	8	5%
O=C(CN1CCOCC1)Nc1ccc2c(c1)OC(F)(F)O2	-8	·	·	5	5%
O=C(c1ccco1)N1CCN(C(c2ccccc2Cl)c2nnnn2Cc2ccco2)CC1 (stereo unspecified)	0	-11	·	1	·
O=S(=O)(Nc1c(O)ccc2ccccc12)c1ccccc1	10	·	93*	·	·
Cn1c(=O)c2c(-c3ccccc3)n(-c3ccccc3O)cc2n(C)c1=O	3	-43	1.4	0	-12%
Cc1cc(C)nc(/N=C(/NC(=O)Nc2ccc(Cl)c(Cl)c2)Nc2ccccc2)n1	-3	-26	1.0	-3	0%
CCn1cnc2sc(C(=O)N(Cc3ccc(N(C)C)cc3)Cc3ccco3)c(C)c2c1=O	5	-9	-1.0	-17	-3%
CCCOc1ccc(-c2nnn(CC(=O)c3c[nH]c4ccccc34)n2)cc1	5	-26	-2.5	-2	-6%
O=c1cc(-c2cccc(F)c2)[nH]c2ccccc12	5	-35	0.8	-17	-13%
COc1ccc2oc(C)c(C(=O)c3ccc([N+](=O)[O-])cc3)c2c1	-1	-18	11	-1	13%
O=C(Nc1ccc(OCc2ccccc2)cc1)c1cccc([N+](=O)[O-])c1	2	-25	-1.5	-13	6%
Cc1c(N(C)C(=O)c2ccc3c(c2)OCO3)c(=O)n(-c2ccccc2)n1C	-18	-28	2.5	-2	-6%
O=C(CCN1C(=O)C2C3C=CC(C3)C2C1=O)Nc1ccc2c(c1)OCO2 (stereo unspecified)	-5	-35	3.5	-5	-1%
CCCCCCCCCCCC(=O)NC1CCS(=O)(=O)C1 (stereo unspecified)	-6	·	-4.3	12	1%
Nc1cccc(-c2cn3cccnc3n2)c1	-8	·	-1.4	14	-6%
